From PubChem BioAssay
TRPML1 ag: activates the human TRPML1 channel | activation, % (concentration not given with the values) | AID 624414 | TRPML1-expressing cells, Ca2+ dye fluorescence, FDSS; host cell line not named in the record; reference of the full effect not given here | 0.12% of 410,000 active | Q9GZU1; in the data active = activation above about 50%; inconclusive = about 30% to 50%; inactive = below about 30%; note: 0% is about no effect; the text of the record puts the active cut at 80%
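TRPML1-DL cells, Tet-induced overnight (~16 h, 37 degrees C), loaded 45-90 min at room temperature with Ca8 no-wash calcium dye plus quencher. FDSS fluorescence: 10 s baseline, compound pin-transfer, 110 s agonist read, then EC80 54-4 (4uM final) and 110 s antagonist read.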
TRPV1 PAM: enhances activation of the human vanilloid receptor TRPV1 | Q8NER1 | TRPV1-expressing cells, Fluo-8 calcium influx, capsaicin EC20 potentiation; host cell line not named in the record; control for the full effect not named in the record | potentiation, % at 8.33 µM | 0.02% of 320,000 active | AID 540277; active means potentiation above 80%; inconclusive means 30% to 80%; inactive means below 30%; note: 0% is about no effect
Target sequence (Q8NER1 whole entry, looked up): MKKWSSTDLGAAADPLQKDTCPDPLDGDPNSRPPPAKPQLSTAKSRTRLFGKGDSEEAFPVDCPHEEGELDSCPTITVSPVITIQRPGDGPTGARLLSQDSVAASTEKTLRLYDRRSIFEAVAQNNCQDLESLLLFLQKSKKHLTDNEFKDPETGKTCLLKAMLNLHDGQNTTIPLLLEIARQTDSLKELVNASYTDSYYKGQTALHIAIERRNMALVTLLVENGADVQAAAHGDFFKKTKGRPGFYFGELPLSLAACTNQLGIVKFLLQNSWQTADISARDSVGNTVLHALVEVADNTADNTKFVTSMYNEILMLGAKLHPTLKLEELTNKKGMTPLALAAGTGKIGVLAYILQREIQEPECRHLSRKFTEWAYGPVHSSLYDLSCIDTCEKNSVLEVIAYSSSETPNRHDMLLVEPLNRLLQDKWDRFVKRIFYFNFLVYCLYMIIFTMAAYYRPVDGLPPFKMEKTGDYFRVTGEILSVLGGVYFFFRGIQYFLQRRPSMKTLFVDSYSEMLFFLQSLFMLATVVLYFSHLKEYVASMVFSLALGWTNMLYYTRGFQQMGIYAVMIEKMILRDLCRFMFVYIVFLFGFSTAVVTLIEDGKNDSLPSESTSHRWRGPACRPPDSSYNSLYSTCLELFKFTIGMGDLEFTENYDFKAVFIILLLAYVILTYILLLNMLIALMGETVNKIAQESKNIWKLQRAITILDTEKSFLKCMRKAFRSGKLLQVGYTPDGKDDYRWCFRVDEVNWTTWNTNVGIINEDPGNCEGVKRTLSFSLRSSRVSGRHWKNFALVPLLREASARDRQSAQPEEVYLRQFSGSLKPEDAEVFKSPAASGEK
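Fluo-8 calcium influx in TRPV1-expressing cells, kinetic read (ex 480/em 520 nm). Compound added and read 3 min for agonist activity, followed by capsaicin at EC20 final and 2 min further read for enhancement.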
TRPML1 blocker: blocks the human TRPML1 channel. TRPML1-inducible cells, Ca2+ dye fluorescence, FDSS; hits give low values; inhibition of EC80 agonist-evoked calcium signal. activity change, negative = inhibition, % (test concentration not listed). 0.02% of 390,000 active. AID 624415; in the data active means activity change below about -50%; inconclusive means about -30% to -50%; inactive means above about -30%;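 note: stimulus is agonist 54-4 at its EC80 concentration; % is set by controls: 0 for no effect and ±100 for the full control effect; compound concentration not given in the record; the text of the record puts the active cut at -80%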
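Tet-induced TRPML1-DL cells loaded with Ca8 no-wash calcium dye were read kinetically on FDSS. Compound addition was followed by EC80 agonist 54-4 (4 uM final); inhibition was read over 110 s.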
ClpP mod: qHTS Assay for Activators of ClpP. ATP-dependent Clp protease proteolytic subunit (Bacillus subtilis (strain 168)), P80244. purified B. subtilis ClpP, FRET peptide cleavage, 20 min. Potency, µM (highest dose often 57.5 µM), inactives show top-dose activity change, negative = active. 1.9% of 340,000 active. AID 651965, 2013; active = well fitted falling curve with a large enough effect; inconclusive = small, poorly fitted or top-dose-only effect; inactive = no such curve, though single readings can be large or run the other way; note: potency is the fitted concentration of half-maximal effect; the source files actives as falling curves though it sought activators and does not explain the sign; nearly all actives have a fitted effect of over 65% in size; many hits overshoot -100%
Target sequence (P80244 whole entry, looked up): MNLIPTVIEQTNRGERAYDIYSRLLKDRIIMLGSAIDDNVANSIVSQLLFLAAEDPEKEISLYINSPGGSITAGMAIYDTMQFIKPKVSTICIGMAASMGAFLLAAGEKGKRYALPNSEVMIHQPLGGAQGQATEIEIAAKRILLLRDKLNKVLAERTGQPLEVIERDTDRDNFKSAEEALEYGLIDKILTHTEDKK
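FRET quenching reversal measured ClpP activation: 10 microg/mL B. subtilis ClpP at pH 8 with the FRET-FV decapeptide, read at 430 nm after 320 nm excitation. The 20-min minus 0-min signal was scaled between DMSO/no-enzyme wells and ADEP (5.8 microM final).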
Sfp inh: blocks B. subtilis Sfp PPTase activity. Q9F4F7. Potency, µM, for the others: max response, negative = inhibition, hits mostly inhibitors. 3.5% of 310,000 active. Biochemical Sfp PPTase activity, qHTS; active = well fitted inhibition curve with a large enough effect; inconclusive = small, poorly fitted or top-dose-only effect, or another doubt; inactive = no such curve, though single readings can be large or run the other way;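 note: the enzyme is Sfp with the accession as filed and its product quenches rhodamine fluorescence; potency is the fitted concentration of half-maximal effect; 0% = enzyme reaction without inhibitor and -100% = no enzyme wells; top concentration of the series not given in the record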
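Reaction rates are the 30-min fluorescence difference (ex 525, em 598 nm) in wells containing 15 nM Sfp, 5 uM rhodamine-CoA and 12.5 uM BHQ-2-YbbR at pH 7.6 with 10 mM MgCl2.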
Menin-MLL FL inh: displaces fluorescein MLL peptide from human menin; FP activity change, % at 61.4 µM; Fluorescence polarization, fluorescein-MLL peptide displacement from menin; AID 1766; 290,000 tested, under 10 active; inconclusive = falling polarisation curve, or a change in total fluorescence; inactive = total fluorescence flat and polarisation flat or rising; no compound was filed as active; the % refers to the polarisation; negative = inhibition;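 note: % of control where 0% means no effect; inhibitors lower the polarisation; unlabelled MLL peptide was the positive control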
PINK1 modulator: PINK1 expression modulation; PINK1 immunofluorescence, high-content cytometry, 24 h; AID 624263; 0.2% of 410,000 active; Potency, µM (highest dose often 76.6 µM), without a hit: top-dose activation (PINK1 increase), usual class: activators; active = well fitted activation curve with a large enough effect; inconclusive = small, poorly fitted or top-dose-only effect; inactive = flat fitted curve, though single readings scatter; cell line not stated here;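 note: potency is the fitted concentration of half-maximal effect; % of control where 0% means no effect; nearly all actives have a fitted effect of over 65% in size; a mitochondrial uncoupler was the plate control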
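A stable cell line was treated with compounds at 5 concentrations for 24 hours, with CCCP as control. PINK1 levels and mitochondrial localization were measured by immunofluorescence with mitochondrial, cell and nuclear markers after fixation, read by laser-scanning cytometry.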
* = called active by the depositor; ? = inconclusive; / = not tested or not shown; & = joins results of further samples; [ ] = dose if it differs, or a comment.

structure	ClpP mod	Sfp inh	TRPV1 PAM	Menin-MLL FL inh	TRPML1 blocker	PINK1 modulator	TRPML1 ag
O=C(Nc1ccccc1)N(CCCN1CCOCC1)Cc1cc2cc3c(cc2[nH]c1=O)OCCO3	32µM*	7%	27	5.3	-12	3.1%	-0.3
COc1ccc(-c2nnc(SCC(=O)N3CCCC3)o2)c(OC)c1	/	7%	2	/	1	0.6%	-0.1
CC(NC(=O)CSc1n[nH]c(-c2ccccc2Cl)n1)c1nc2ccccc2n1C (stereo not drawn)	-1.0%	/	/	/	12	-0.2%	1.0
Cc1ccc(S(=O)(=O)N[C@@H](C)C(=O)N2CCC(C(=O)N3CCC[C@H]3C(=O)O)CC2)cc1	-1.5%	15%&20%	4&0	2.8&0.0	13	2.3%	-0.2
CC(/C=N/NC(=O)c1cc(-c2ccc(Cl)cc2)nc2ccccc12)=C\c1ccco1	-9.9%	-12%	10	2.1	13	1.6%	0.8
CCN(C(=O)COC(=O)CSc1ccc([N+](=O)[O-])cc1)C1CCS(=O)(=O)C1 (stereo not drawn)	-1.0%	14%	21	/	-5	3.9%	-0.2
CCCN(C(=O)Cn1ncc2c(=O)oc3ccccc3c21)c1cccc(C)c1	-2.9%&-0.7%	-1%	3	1.1	-14&-14	3.6%&0.7%	-0.8&1.0
Cc1ccc(-c2noc(CCC(=O)Nc3cc(C)ccn3)n2)cc1	0.8%	16%	8	1.6	-5	2.8%	-0.8
CCOC(=O)Nc1nc(C)c(C(=O)c2ccc(Cl)cc2)s1	-5.2%	2%	-7	3.8	-12	3.9%	0.5
O=C1CCc2ccc(NS(=O)(=O)c3ccc(F)cc3)cc2N1	/	?	7	-0.2	-11	3.2%	0.0
CCC1(C)CC2(CCCN(CCC(O)(c3ccccc3)c3ccccc3)C2)CCO1 (stereo not drawn)	-0.5%	4%	7	1.9	70	45µM*	1.1
Cc1ccc(C(=O)N/C(=C/c2ccc(-c3ccc([N+](=O)[O-])cc3)o2)C(=O)NCCCN(C)C)cc1	/	/	/	/	9	-2.7%	7.7
O=C(Nc1ccc(S(=O)(=O)Nc2nccs2)cc1)C1CCCCC1	1.1%	-2%	-1	4.0	1	-10%[38.3 µM]	-0.4
O=C(NCc1ccccn1)C1CC(=O)N(C2CCCC2)C1 (stereo not drawn)	0.7%	/	/	/	-4	-0.5%	0.2
CNc1nc(N2CCc3ccccc32)ncc1F	-2.9%	-2%	3	-3.1	-7	/	1.3
CC(NC(=O)Cn1nc(-c2ccccc2)ccc1=O)c1ccccc1 (stereo not drawn)	-8.4%	4%	-2	-1.6	5	-0.3%	-0.8
COc1ccc(OCc2nc(C#N)c(NCCCn3ccnc3)o2)cc1	/	20%	0	1.0	-2	0.9%	0.9
COc1ccccc1N1CCN(C(=O)CN(C)S(=O)(=O)c2cc(C)ccc2OC)CC1	/	1%	27	3.5	-9	2.7%	0.7
COC(=O)c1ccccc1NC(=O)CSc1nnc(-c2cccnc2)n1N	/	4%	?	0.2	11	-1.8%	-0.6
CCc1ccc(NC(=O)c2c(C(=O)Nc3ccccc3)sc3nc(C)cc(=O)n23)cc1	-2.5%&-4.3%	-13%	-3	0.1	15&2	-0.3%&5.2%	0.6&0.9

Looked up by compound from the list above, two records:
structure	ClpP mod	Sfp inh	TRPV1 PAM	Menin-MLL FL inh	TRPML1 blocker	PINK1 modulator	TRPML1 ag
COc1ccc(OCc2nc(C#N)c(NCCCn3ccnc3)o2)cc1	/	20%	0	1.0	-2	0.9%	0.9
COc1ccccc1N1CCN(C(=O)CN(C)S(=O)(=O)c2cc(C)ccc2OC)CC1	/	1%	27	3.5	-9	2.7%	0.7

The listing continues:
structure	ClpP mod	Sfp inh	TRPV1 PAM	Menin-MLL FL inh	TRPML1 blocker	PINK1 modulator	TRPML1 ag
CCn1c(Cc2ccccc2)nnc1SCC(=O)Nc1ccc2c(c1)OCO2	1.4%	-9%	1	2.8	-8	1.6%	-1.5
Cc1cnc(C(=O)OCC(=O)c2csc(N3CCCCC3)n2)cn1	-6.8%	?	5	4.7	14	1.8%	-0.2
COc1ccc(-c2nc(CSCC(=O)NC3CC3)c(C)o2)cc1OC	3.3%	9%	-8	-4.9	-4	-0.3%	-0.9
CCCNC(=O)c1cccc(COc2ccccc2OC)c1	1.1%	13%	14	0.1	10	-0.6%	0.4
S=C(NC1CCCC1)NC1CC1	/	21%	12	3.2	-9	1.8%	0.1
CCOC(=O)c1c(C)[nH]c(C)c1S(=O)(=O)N1CCC(C(=O)Nc2ccc(C)c(N(C)C)c2)CC1	1.0%	/	/	/	-9	1.9%	-1.0
O=C(COC(=O)[C@@H]1CCCN1C(=O)c1cccs1)Nc1ccc(F)cc1[N+](=O)[O-]	/	10%	2	1.8	4	2.1%	0.6
CCn1c(=S)sc2c(=O)[nH]c(C)nc21	0.5%	-4%	12	4.1	22	-1.3%	-0.1
Fc1cccc(Cl)c1CSc1nnnn1-c1ccc2c(c1)OCO2	0.3%	-11%	-4	-0.4	19	/	3.2
Cc1ccc2c(Cl)cc(Cl)c(OCC(=O)Nc3cc(C)on3)c2n1	/	1%	2	-0.1	/	/	/

Looked up above.
`CCn1c(Cc2ccccc2)nnc1SCC(=O)Nc1ccc2c(c1)OCO2` in PINK1 modulator: 1.6%
`S=C(NC1CCCC1)NC1CC1` in PINK1 modulator: 1.8%
`CCCNC(=O)c1cccc(COc2ccccc2OC)c1` in PINK1 modulator: -0.6%

The list goes on.
structure	ClpP mod	Sfp inh	TRPV1 PAM	Menin-MLL FL inh	TRPML1 blocker	PINK1 modulator	TRPML1 ag
COc1ccc(-n2cccc2C=O)cc1	0.7%	12%	?	7.3	36	1.0%	-0.4
Cc1cc(C)c(S(=O)(=O)N2CCCOC2CNC(=O)C(=O)NCc2ccccn2)c(C)c1 (stereo not drawn)	/	14%	2	-0.8	11	-1.3%	-0.4
O=C(NCc1n[nH]c(=S)n1-c1ccc(Cl)c(Cl)c1)c1ccco1	-4.7%	-12%	-1	/	-2	-0.9%	0.0
O=C(CCN1C(=O)c2ccccc2C1=O)Nc1ccccn1	-0.9%	5%	-3	0.8	-7	-1.8%[38.3 µM]	1.2
Cc1nn2c(=O)cc(COC(=O)c3ccc(NC(=O)CCc4ccccc4)cc3)nc2s1	-24%	/	/	/	29	1.5%	2.5
COc1ccc(N2CCN(C(=O)c3ccncc3)CC2)cc1	-1.3%	10%	14	-1.2	15	-0.5%[38.3 µM]	-0.2
CCc1ccc(-c2cc(C)no2)cc1S(=O)(=O)NCCc1ccc(OC)c(OC)c1	0.1%	6%	1	2.8	-14	1.2%	0.1
CSCCC(NC=C1C(=O)OC(C)(C)OC1=O)C(=O)O (stereo not drawn)	-1.1%	-16%	/	-1.6	4	-0.2%	-0.3
CCSc1ncc(Cl)c(C(=O)Nc2sc(C(C)=O)c(C)c2C(=O)OC)n1	1.1%	/	/	/	6	0.6%	-0.6
CCCCn1c(SCC(=O)NCc2ccco2)nnc1-c1ccco1	-3.5%	-1%	-1	3.3	18	6.3%[38.3 µM]	0.5
CCc1ccccc1NC(=O)CNC(=O)CNC(=O)c1cccs1	-1.1%	/	3	/	-3	1.8%	-0.9
Cc1ccc(NC(=O)CN(c2ccccc2F)S(C)(=O)=O)cc1	-13%	13%	25	0.9	-2	-0.3%	0.4
COc1ccc(CN2C(=NC(=O)CCC3CCCC3)SC3CS(=O)(=O)CC32)cc1 (stereo not drawn)	-0.4%	6%	3	-1.0	-12	0.8%	0.7
CCN1CCN(c2nc3c(C)cccn3c(=O)c2C=C(C#N)C#N)CC1	-2.0%	4%	-4	?	5	-0.4%	1.4
C=CCn1c(SCC(=O)Nc2ccccc2OC)nc2c([nH]c3ccccc32)c1=O	-3.2%	-15%	11	/	4	5.8%	1.4
Cc1occc1C(=O)N(C)Cc1nc(-c2ccc(Cl)cc2)no1	/	-19%	-4	-0.5	4	-1.3%	-0.2
OCC[C@H]1C[C@H](O)[C@@H](O)[C@@]2(CCCO2)O1	-0.1%	/	/	/	3	3.8%	-0.6
O=C(COC(=O)Cc1ccccc1[N+](=O)[O-])NCC1CCCCC1	/	15%	-9	1.7	15	-0.2%	0.1
O=C(COC(=O)c1ccc(Br)o1)NCCc1ccccc1	/	11%	-3	2.3	4	0.8%	0.7
O=C(CCNC(=O)c1ccc(Br)cc1)NNC(=O)C1COc2ccccc2O1 (stereo not drawn)	-10%	/	2	/	-9	-0.9%	0.0
Nc1cc(Cl)ccc1C(=O)OCC(=O)NC1CCCCC1	/	21%	3	-3.0	13	1.0%	1.0
N#Cc1ccc(C(=O)Nc2ccc(N3CCN(C(=O)c4ccco4)CC3)cc2)c(F)c1	-3.7%	-10%	-9	2.6	14	5.4%[38.3 µM]	0.0
C=CCSc1nnc2nc3[nH]c4c(C)cccc4c3nn12	0.7%	-6%	-11	?	-13	4.4%	-0.2
Cc1sc2ncn(CC(=O)NCCCN3CCC(C)CC3)c(=O)c2c1S(=O)(=O)N1CCC(C)CC1	/	16%	4	-4.9	9	2.6%	0.8
CC(=O)c1ccc2c(c1)N(Cc1ccccc1)C(=O)C(C)S2 (stereo not drawn)	-6.1%	/	/	/	/	0.0%	-0.9
O=C1NC(=Nc2ccc(Cl)cc2)/C(=C/c2ccco2)S1	/	50µM*	3	?	10	?	1.5
CCOc1ccc(NC(=O)c2nc3nc(C)cc(C(F)F)n3n2)cc1	-0.2%	/	/	/	-20	0.2%	-0.3
CCOC(=O)C1CCN(C(=O)CN2C(=O)C(CC)Oc3ccccc32)CC1 (stereo not drawn)	1.2%	15%	3	4.1	-13	2.1%[38.3 µM]	0.3
O=C(Nc1cccc(C(=O)OCc2cc(=O)n3nc(C4CC4)sc3n2)c1)c1ccc(F)cc1	-0.8%	/	/	/	11	2.0%	-0.5
COc1ccc(CNC2CC(=O)N(C)C2=O)cc1 (stereo not drawn)	-1.4%	14%	-8	?	-12	5.7%[38.3 µM]	0.4
O=C(Nc1nc2c(F)cc(F)cc2s1)C1CC(=O)N(Cc2ccco2)C1 (stereo not drawn)	-6.2%	10µM*	?	3.1	/	1.2%	/

Compounds were not picked by outcome. Share with any hit: about 4.4%.
